# Calb FLC = C. albicans growth inhibition with fluconazole, primary screen, CaCi-2 strain, Alamar Blue fluorescence | C. albicans CaCi-2 (fluconazole-resistant clinical isolate) + fluconazole, 48 h | growth inhibition, % (concentration not given with the values) | 300,000 tested, 0.57% active | AID 1979, 2009;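 active = most replicates above 75%; inconclusive = exactly half above 75%; inactive = most below 75%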;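 also: all wells also contain fluconazole at 8 µg/ml as a sub-toxic cotreatment; 0% = median of DMSO wells and 100% = median of geldanamycin control wells; wells of about 8 µL received 7.5 nL stock; the first replicate is given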
# AF4-AF9 inh = inhibitors of AF4 peptide binding to AF9, primary screen, biochemical, AlphaScreen, biotin-AF4 peptide, FLAG-AF9, single point; Protein AF-9 (Homo sapiens), P42568; inhibition, % at 10 µM; 350,000 tested, 0.47% active;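 active = every replicate reaching a set inhibition limit, whatever the replicate mean, cut at about 25% in these data; inconclusive = mean inhibition reaches that limit but some replicates miss it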;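 also: 0% = plate neutral control median and 100% = total signal loss; the record names both 10 and 1 µM as test concentration; the first replicate is given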
# Target sequence (P42568 whole entry, looked up): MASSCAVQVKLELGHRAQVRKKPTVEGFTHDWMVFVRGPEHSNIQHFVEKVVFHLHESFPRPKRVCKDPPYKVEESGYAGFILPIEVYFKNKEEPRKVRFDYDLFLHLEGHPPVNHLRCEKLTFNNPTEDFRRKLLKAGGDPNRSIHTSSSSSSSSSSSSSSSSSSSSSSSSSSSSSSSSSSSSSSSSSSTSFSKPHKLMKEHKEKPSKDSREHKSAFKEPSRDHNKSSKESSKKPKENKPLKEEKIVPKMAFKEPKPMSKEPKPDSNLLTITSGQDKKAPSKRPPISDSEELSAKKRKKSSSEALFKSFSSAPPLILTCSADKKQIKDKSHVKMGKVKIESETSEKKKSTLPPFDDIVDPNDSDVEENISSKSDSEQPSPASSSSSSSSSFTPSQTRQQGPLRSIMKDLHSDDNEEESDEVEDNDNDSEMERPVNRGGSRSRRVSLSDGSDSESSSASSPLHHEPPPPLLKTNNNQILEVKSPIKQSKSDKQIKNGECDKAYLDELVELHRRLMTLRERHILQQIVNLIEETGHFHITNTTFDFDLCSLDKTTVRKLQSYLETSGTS
# A1 inh = caspase 3/7 activation in MEF A1-2A-BIM cells, primary screen, A1 inhibitor project, cell-based, luminescence, HTS; Caspase-Glo 3/7 luminescence, 3 h; percent of clofoctol response, vehicle zero; caspase activation, % (test concentration not listed); 330,000 tested, 0.066% active; AID 2462, 2010;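 active = over half of replicate activation scores above 10%, or exactly half above 10 with the replicate mean above 10; inconclusive = replicate mean below 10 yet half the replicates above 10; inactive = over half of replicates below 10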;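 also: wells of about 30 µL received 50 nL stock; many hits fall short of the cut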
# Vif TR-FRET = inhibitors of Vif binding to APOBEC3G peptide, primary screen, biochemical, TR-FRET, GST-Vif 1-94, biotin-A3G peptide, dose response retest (AID 1117319) | Virion infectivity factor (Human immunodeficiency virus type 1 group M subtype B (isolate … | TR-FRET GST-Vif / biotin-A3G peptide binding; higher % means a stronger effect; test concentration not given here; strong numbers were not always called active | one-dose inhibition, %; IC50 in µM for titrated hits | 260,000 tested, 0.57% active;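 active = above the screen mean plus three standard deviations and confirmed in dose response; inconclusive = results disagree or hit not tested in dose response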;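 also: Vif residues 1-94 fused to GST binding biotinylated APOBEC3G peptide 110-148; 0% = full assay without inhibitor and 100% = GST in place of GST-Vif; retest series ran down from 100 µM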
# RanGTP-Imp inh = inhibitors of RanGTP-importin-beta interaction, primary screen, biochemical, FRET, CFP-Ran, YFP-importin-beta, homogeneous | Ran GTPase (GTP-bound) - importin-beta complex | cell-free CFP-Ran/YFP-importin-beta FRET ratio | inhibition, % (test concentration not listed) | 300,000 tested, 1.1% active | AID 2216, 2009;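 active = most replicates above 15%; inconclusive = exactly half above 15%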;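 also: 0% = DMSO wells and 100% = Ran loaded with GDP instead of GTP; wells of about 40 µL received 100 nL stock; the first replicate is given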
# Beta cell apopt = inhibitors of cytokine-induced beta cell apoptosis, primary screen, luminescence. protection from apoptosis, % (no concentration beside the values). 300,000 tested, 0.8% active. INS-1E cytokine-induced death, ATP luminescence, 48 h; percent of positive-control rescue, neutral wells zero. AID 435005, 2010;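 active = all replicates at 75% or more, or half of them and the mean; inconclusive = half reach 75% but not the mean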;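 also: 0% = cytokine-treated negative control wells and 100% = positive control rescue; higher means more ATP so stronger rescue from cytokine killing; wells of about 40 µL received 100 nL stock; the first replicate is given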
# T cruzi repl = inhibitors of intracellular T. cruzi growth, primary screen, luminescence, NIH3T3 host cells | AID 1885, 2009 | inhibition, % (concentration not given with the values) | T. cruzi beta-gal in NIH3T3, 90 h | 300,000 tested, 1.4% active;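 active = mean inhibition across valid replicates above about 55%, limit read from the data; inconclusive = mean below that limit but half or more replicates reach it; inactive = mean below it, under half of replicates reach it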;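 also: signal also drops with host cell toxicity which is not excluded here; 0% = plate median of DMSO wells and 100% = zero luminescence signal; higher percent means less beta-gal luminescence so fewer parasites; stock transfer was 50 nL into about 50 µL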
# Ecoli rRNA inh = reduced GFP signal of wild-type E. coli, primary screen, bacterial rRNA inhibitor project, GFP/RFP fluorescence, OD600, single point | 350,000 tested, 1.6% active | GFP signal change (wild-type ribosome), % (no concentration beside the values) | E. coli WT GFP vs humanized-ribosome RFP mutants, 24 h; hits give low values; DMSO median 0, no signal -100;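 active = significant combined selectivity score with lowered wild-type GFP, culture density cut under 30%, mutant RFP and density less affected; inactive = any of these conditions unmet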; also: one replicate is shown; some compounds called inactive have numbers as strong as hits
# Ecoli rRNA inh OD600 = further read-out of Ecoli rRNA inh, marked with its call; OD600 change, %; measured here: OD600 growth;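 optical density of the mix in the first replicate; 0 = DMSO median and -100 = no signal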
# Ecoli rRNA inh RFP = further read-out of Ecoli rRNA inh, marked with its call; RFP signal change, %; measured here: RFP humanized mutant strains;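 first replicate; 0 = DMSO median and -100 = no signal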
# * = called active by the depositor; ? = inconclusive; nt = no result given.
# Values run as follows: Calb FLC	AF4-AF9 inh	A1 inh	Vif TR-FRET	RanGTP-Imp inh	Beta cell apopt	T cruzi repl	Ecoli rRNA inh	Ecoli rRNA inh OD600	Ecoli rRNA inh RFP
1) CC(C)C[C@H](NC(=O)N1c2ccccc2NC(=O)[C@@H]1C(C)C)C(=O)N1CCC[C@@H]1C(=O)O
  -2	0.3	-0.6	nt	7.7	-3	-4	6	7	4.6
2) CN(C)CCn1cnc2c1c(=O)[nH]c(=O)n2Cc1ccccc1
  1	1.6	-0.4	5%	2.8	-1	-5	8	14	4.1
3) COC(=O)c1cc(NC(=O)c2ccccc2)c(=O)oc1C/C=N\OCc1ccc(Cl)cc1Cl
  -4	nt	1.4	15%	-6.4	-7	3	nt	nt	nt
4) COc1ccc(C(CNC(=O)c2cc3c(s2)CCC(C)C3)N2CCOCC2)cc1 (stereo unspecified)
  nt	2.8	-0.9	-2%	nt	2	nt	nt	nt	nt
5) CSc1nn2cc(CCN3CCOCC3)c(-c3ccc(F)cc3)nc2c1C#N
  28	-1.6	-0.3	nt	5.6	6	23	-24	-22	0.3
6) Cc1cccc(NC(=O)C(CC(C)C)NC(=O)C2CCC(C)CC2)n1 (stereo unspecified)
  -5	-1.9	-0.2	nt	-3.0	2	-1	19	9	0.2
7) COc1ccccc1NC(=O)CN1C(=O)C2(OCCCO2)c2ccccc21
  -9	-5.3	0.0	1%	4.7	-4	9	-3	-4	0.9
8) O=C(Cn1nc(-c2nn(CC(=O)c3ccccc3)c3[n+]2CCCCC3)[n+]2c1CCCCC2)c1ccccc1
  -4	-0.6	0.2	5%	1.2	-5	9	-3	4	3.5
9) Cc1ccc(NC(=O)c2sc(=S)n(-c3cc(C)ccc3F)c2N)cc1
  2	-1.3	0.5	nt	3.8	-4	14	11	7	0.5
10) Cc1cccc(-c2cnn(-c3ccccc3)c2N)c1
  -9	4.2	-8.6	2%	6.9	-1	-9	15	-2	-5.3
11) Cc1cc([N+](=O)[O-])nn1CC(=O)NCc1nc2ccccc2[nH]1
  -6	-0.7	1.0	nt	174*	-5	8	-10	2	1.5
12) O=C(NCCCN1CCOCC1)C(=O)NCc1ccco1
  -33	0.3	0.6	nt	3.2	-4	-2	-2	3	1.0
13) COc1ccc(NCC(O)COc2ccc(C(C)(C)C)cc2)cc1 (stereo unspecified)
  -2	7.2	-0.9	-5%	2.9	9	12	-30	-34	13
14) COc1ccc(CN2[C@@H](CC(=O)O)c3cc(F)ccc3S2(=O)=O)cc1
  -3	-1.5	0.0	nt	4.0	-1	-4	6	6	-1.1
15) O=C(Cc1c(F)cccc1Cl)NCCCn1ccnc1
  -6	nt	0.9	0%	-0.4	-11	3	nt	nt	nt
16) COC(=O)[C@H](Cc1c[nH]c2ccccc12)NC(=O)Cc1c[nH]c2ccccc12
  -3	3.2	2.6	9%	0.3	-2	-16	-29	-43	-8.9
17) C[N+](C)(C)CC(=O)N1CCN(c2ccc3ccccc3n2)CC1
  4	-1.2	-0.3	-3%	4.4	-7	-8	3	13	3.7
18) COCCNC(=O)c1c[nH]c2ccc(S(=O)(=O)N3CCOCC3)cc2c1=O
  4	0.4	-0.2	nt	-1.8	-5	21	4	10	-1.1
19) O=C(c1ccncc1)N1CCN(S(=O)(=O)c2ccc(OC(F)(F)F)cc2)CC1
  nt	-3.7	0.2	nt	nt	-1	nt	8	8	1.0
20) O=C(CN1CCCCC1)Nc1cc(Cl)ccc1Cl
  -9	nt	-0.9	-7%	?	-1	24	nt	nt	nt
21) CC1C/C(=N/Nc2ccc([N+](=O)[O-])cc2[N+](=O)[O-])CC(C)(C)C1 (stereo unspecified)
  6	nt	-1.2	-8%	5.7	10	-6	nt	nt	nt
22) COc1ccc(CC(=O)NCc2ccco2)cc1OC
  0	5.5	-1.2	-2%	0.0	-1	-11	2	-3	-1.2
23) Cc1ccc2nsnc2c1NC(=O)COc1ccccc1
  2	-0.2	0.8	-2%	0.4	-5	-15	7	12	0.4
24) CCC(C)NC(=O)C(Cc1ccccc1)n1cccc1 (stereo unspecified)
  7	-11	0.1	-1%	1.4	-3	-16	1	4	0.2
25) C=CCn1cnc2scc(-c3ccc(C)cc3)c2c1=O
  1	nt	-0.5	6%	-3.5	1	4	nt	nt	nt
26) CCCC(=O)Nc1ccc(NC(=S)NC(=O)c2ccccc2[N+](=O)[O-])cc1
  -6	5.4	-0.6	nt	-6.1	-4	-13	nt	nt	nt
27) Cc1cc(OC(C)C(=O)NCc2ccccn2)c2c(C)cc(=O)oc2c1 (stereo unspecified)
  1	1.2	1.4	nt	0.1	-2	4	8	16	0.4
28) Cc1occc1-c1nnc(SCC(=O)N2CCCCC2C)o1 (stereo unspecified)
  nt	3.4	1.5	17%	nt	-1	nt	-1	-2	-1.8
29) COc1ccc(NC(=O)c2ccc(Cc3ccc(C)cc3)o2)cc1
  6	nt	-0.5	-2%	3.4	3	-6	nt	nt	nt
30) O=C1c2ccc3c4c(ccc(c24)C(=O)N1c1ccc2ccccc2c1)CC3
  -17	nt	1.1	-4%	-2.1	1	4	nt	nt	nt
31) CSc1ncccc1C(=O)Nc1cccc(S(=O)(=O)N2CCOCC2)c1
  nt	-2.5	0.1	nt	nt	2	nt	2	-4	-2.4
32) O=C1CCCC2=C1C(c1ccc(O)cc1)c1c(ccc3ccccc13)N2 (stereo unspecified)
  60	-8.2	-0.2	17%	1.2	-4	25	-9	-19	2.1
33) CC(Sc1nnc(-c2ccccc2F)n1N)C(=O)NCC1CCCO1 (stereo unspecified)
  5	-0.3	-0.1	18%	3.1	-6	-24	13	16	1.8
34) Cc1cc(=O)oc2cc(OCC(=O)N/N=C/c3cc([N+](=O)[O-])ccc3O)ccc12
  10	nt	-0.1	-6%	-5.1	2	3	nt	nt	nt
35) Cc1ccc(C2=NC3(CCCCC3)N=C2SCC(=O)Nc2ccc3c(c2)OCCO3)cc1
  7	-0.6	0.7	-3%	-2.3	1	26	-7	-3	-1.5
36) NS(=O)(=O)c1ccc(NC(=S)NC(=O)C2CCCCC2)cc1
  38	-11	1.3	15%	1.3	1	nt	-14	-17	0.9
37) Cn1ccnc1SCC(=O)Nc1nc2c(F)c(F)c(F)cc2s1
  -1	-11	-0.3	-6%	2.7	9	4	-3	-11	0.3
38) C=CCOc1ccccc1CNCc1cccnc1
  -16	nt	0.5	-2%	3.5	2	-8	nt	nt	nt
39) Cc1ccc(C)c(S(=O)(=O)NCCOC(=O)Nc2sc(=S)n(C)c2C)c1
  -1	-19	0.3	?	-3.0	9	-7	-3	-15	-2.3
40) Cc1cccc(C(=O)N2CCN(Cc3ccc4c(c3)OCO4)CC2)c1
  -10	0.4	-1.4	-1%	4.5	4	-8	-2	-8	-9.2
41) COC(=O)c1ccc(CN2CCCC(C(=O)Nc3cccc(-n4cnnn4)c3)C2)cc1 (stereo unspecified)
  -4	4.4	0.9	nt	1.5	-2	38	-3	-6	-0.7
42) CCOP(=O)(OCC)c1nc(-c2ccc(OC)cc2)oc1N1CCOCC1
  -7	-13	0.6	nt	1.7	-8	-15	3	0	-0.1
43) CCC(=O)Nc1ccc2c(c1)C(=O)N(C)C2=O
  1	nt	-0.6	2%	-3.2	-2	6	nt	nt	nt
44) CN(c1ccccc1)S(=O)(=O)c1cccc(C(=O)N2CCN(c3ccccn3)CC2)c1
  nt	nt	0.4	3%	-3.9	4	20	nt	nt	nt
45) O=C(COc1cccc2c1CCNC2=O)NC1CCCCC1
  -5	-0.7	1.6	0%	-2.2	-6	-1	0	12	-2.4
46) CC(=O)c1ccc(N2CCN(CCC#N)CC2)c(F)c1
  16	nt	0.7	1%	?	-5	-12	nt	nt	nt
47) Cc1nn2c(-c3ccncc3)ccnc2c1Br
  -3	1.6	1.7	-7%	?	-5	1	3	2	-0.5
48) Cc1ccc(C(=O)OCC(=O)NN2C(=O)NC3(CCC(C)CC3)C2=O)cc1 (stereo unspecified)
  6	-17	0.2	-1%	-0.9	-3	-1	-1	-4	-1.1
49) O=C(Cc1cccs1)NNC(=S)NC(=O)c1ccccc1
  31	-2.5	-0.6	-8%	0.4	nt	-18	0	6	21
50) CCOc1ccc(S(=O)(=O)Nc2cccc(C(=O)N3CCN(c4ccccc4O)CC3)c2)cc1
  nt	1.4	-0.5	4%	nt	-4	nt	-8	-4	1.1
51) CCCN1CCC(N2CCCC(C(=O)O)C2)CC1 (stereo unspecified)
  0	-1.7	-0.7	nt	1.3	-1	15	23	9	2.6
52) Cc1cccc(NC(=O)C2CCCN2S(=O)(=O)c2ccc3c(c2)n(C)c(=O)c(=O)n3C)c1 (stereo unspecified)
  12	-12	0.3	nt	?	-4	-9	9	13	0.8
53) C=CC(=O)N=c1sc2ccccc2n1-c1ccccc1
  22	-0.5	-0.2	nt	-1.5	nt	-161	-14	-6	5.2
54) COc1ccc(CCNC(=O)CN2C(=O)NC3(CCCCC3)C2=O)cc1
  nt	-8.5	1.5	4%	nt	2	nt	3	1	1.1
55) CN(C)CCNC(=O)c1cc(Br)ccc1Cl
  -4	-1.8	0.3	-8%	2.1	-5	14	14	13	-9.7
56) CCOc1ccc(N=C2NC(=O)S/C2=C\c2ccc(O)cc2)cc1
  -2	nt	0.3	11%	7.6	-1	1	nt	nt	nt
57) CCN1CCN(C(=S)c2ccc(Br)cc2)CC1
  -6	2.3	0.2	-9%	0.8	-3	19	10	10	-9.8
58) Cn1cc([N+](=O)[O-])c(C(=O)NC2CCCC2)n1
  7	0.7	nt	nt	-0.6	nt	-11	13	20	3.4
59) CC(=O)Nc1cccc(-n2nnc(SCC(=O)Nc3ccccc3)n2)c1
  2	-0.3	0.3	-1%	-2.8	2	3	nt	nt	nt
60) O=C1CC(N2CCN(C3CCc4ccccc4C3)CC2)C(=O)N1c1ccccc1 (stereo unspecified)
  4	nt	0.9	0%	?	-1	-15	nt	nt	nt
61) CC1CN(C)C(C)CC1OC(=O)C(c1ccccc1)c1ccccc1 (stereo unspecified)
  -15	3.1	0.6	nt	-0.1	-12	52	0	-5	-2.0
62) CCCCCC1CCC(C(=O)NNC(=S)NCC)CC1 (stereo unspecified)
  -21	nt	0.5	0%	-0.8	-6	37	-2	-5	0.3
63) C=CCNC(=O)/C(=C\c1ccc2c(c1)OCO2)NC(=O)c1ccc(Br)cc1
  3	2.9	-0.4	4%	2.3	0	5	0	5	1.4

# Bioassay records as filed in PubChem BioAssay.

# These rows are one share of the data; the hit share may differ from the screen's.
